Bioassay records deposited in PubChem BioAssay by several laboratories.
YopH inh – blocks Yersinia enterocolitica YopH tyrosine phosphatase; fluorescence Ex485/Em525; inhibition, %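 (about 10 µM by stock and volumes)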; 140,000 tested, 0.16% active;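 active = inhibition of 50% or more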;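 also: controls were vehicle for no effect and minimum signal wells for full effect; inactives centre near -20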
Mtb betalactam – beta-lactam sensitization of Mtb H37Rv. inhibition, % at 25 µM. M. tuberculosis H37Rv growth with meropenem, percent inhibition; hits of this screen are not shown here. 330,000 tested, 0.27% active;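 active = about 74% or more and at least 40 points above the plate without the antibiotic, then above 30% in a dose series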;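 also: growth measured after seven days incubation then overnight dye step; 0% = bacteria only wells and 100% = bacteria with antibiotic; twin plates without the antibiotic show which effects depend on it; some results filed as inactive read as strong as hits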
Mtb growth – M. tuberculosis H37Rv growth inhibitors, H37Rv strain (AID 1626); 220,000 tested, 0.95% active; inhibition, % at 10 µM; hits with a dose series show IC50 in µM; M. tuberculosis H37Rv growth inhibition; higher % means a stronger effect;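 active = confirmed in a dose series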;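 also: bacteria incubated seven days before Alamar blue readout; 0% = bacteria only wells and 100% = bacteria with antibiotic wells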
Arbovirus inh – arbovirus infection inhibition. arbovirus infection cell-based antiviral screen. inhibition, % at 10 µM. 200,000 tested, 0.37% active;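 active = inhibition from about 30%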;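 also: bluetongue infection of BSR cells; cell survival read as ATP light after 72 h; 0% = infected wells without compound and 100% = uninfected wells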
RecA intein inh – inhibitors of M. tuberculosis RecA intein splicing; P9WHJ3; cell-free RecA intein splicing, fluorescence; inhibition, %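 (about 9 µM by stock and volumes)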; 290,000 tested, 0.75% active; AID 2221; in the data active = inhibition above about 30%;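 also: 0% = vehicle wells and 100% = reference inhibitor control wells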
Target sequence (P9WHJ3 whole entry, looked up): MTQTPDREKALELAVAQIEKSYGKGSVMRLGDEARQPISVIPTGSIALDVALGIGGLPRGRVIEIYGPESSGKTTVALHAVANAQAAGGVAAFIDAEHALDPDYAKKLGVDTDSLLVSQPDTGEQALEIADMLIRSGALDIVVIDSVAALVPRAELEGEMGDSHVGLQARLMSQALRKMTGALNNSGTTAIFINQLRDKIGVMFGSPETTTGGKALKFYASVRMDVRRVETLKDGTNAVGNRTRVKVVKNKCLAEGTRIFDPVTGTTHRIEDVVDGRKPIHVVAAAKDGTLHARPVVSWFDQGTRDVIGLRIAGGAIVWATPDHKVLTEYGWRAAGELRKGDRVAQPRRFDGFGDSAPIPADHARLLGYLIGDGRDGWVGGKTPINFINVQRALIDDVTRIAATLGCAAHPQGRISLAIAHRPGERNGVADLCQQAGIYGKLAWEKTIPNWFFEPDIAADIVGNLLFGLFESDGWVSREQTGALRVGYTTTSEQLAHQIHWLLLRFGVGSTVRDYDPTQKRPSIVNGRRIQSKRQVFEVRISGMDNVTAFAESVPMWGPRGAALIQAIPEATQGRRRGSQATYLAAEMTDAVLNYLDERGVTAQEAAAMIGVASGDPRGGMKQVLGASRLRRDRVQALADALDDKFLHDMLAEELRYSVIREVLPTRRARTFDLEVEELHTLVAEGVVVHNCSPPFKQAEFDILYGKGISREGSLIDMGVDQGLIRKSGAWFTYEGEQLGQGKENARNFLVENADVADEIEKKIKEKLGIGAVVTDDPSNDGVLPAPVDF
Arbovirus inh repeat – further read-out of Arbovirus inh, marked with its call; inhibition, %; measured here: 10K subset replicate screen; many hits read low in the repeat;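 first of two repeat runs on a subset; 0% = infected and 100% = uninfected wells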
Starred values were filed as active, the others as inactive; x = not tested or not shown. A portion of the library, so the mix of outcomes need not match the whole.

SMILES	YopH inh	Mtb betalactam	Mtb growth	Arbovirus inh	RecA intein inh	others
O=c1c2ccccc2nc(/C=C/c2ccccc2)n1-c1ccccc1O	x	12.6	x	x	-2.1
CCCCNC(=O)COC(=O)CCC(=O)c1cccs1	-11.0	1.8	2.6%	1.9	-2.6
COc1ccc(-c2nc3ccccc3c(=O)n2CCOc2cc(C)ccc2C)cc1	-32.6	2.0	-3.5%	19.5	x
Cc1occc1-c1nnc(SCC(=O)c2ccc3c(c2)OCCO3)n1CC1CCCO1 (configuration not stated)	x	1.0	x	x	-0.1
Cc1cnc(C(=O)Nc2ccccc2-n2cccc2)cn1	-32.2	-7.0	2.6%	6.6	0.7
CCc1cccc(CC)c1NC(=O)C(CC)Sc1nc2ccncc2[nH]1 (configuration not stated)	x	-4.8	x	x	3.5
O=C(Cn1cc(C=C2C(=O)NC(=O)NC2=O)c2ccccc21)NCC1CCCO1 (configuration not stated)	x	-1.0	x	x	-1.2
COc1ccccc1OCCNc1nc2c(c(=O)n(C)c(=O)n2C)n1C	41.2	-2.9	-9.4%	0.8	1.5
Cc1ccc(C)c(NC(=O)C[n+]2ccccc2)c1	x	-7.9	x	x	-3.5
Cc1ccccc1-n1nnnc1SCc1csc(-c2ccccc2)n1	-6.0	4.0	-2.8%	-4.8	9.8
Cc1sc2nc(CSCC(=O)Nc3c(F)cccc3F)[nH]c(=O)c2c1C	x	-3.6	x	x	-1.0
CCOC(=O)Cn1c(=O)oc2cc(S(=O)(=O)N3CCN(C(=O)OCC)CC3)ccc21	x	9.5	x	x	-3.0

In the list so far, two have an NH in an aromatic ring.
SMILES	YopH inh	Mtb betalactam	Mtb growth	Arbovirus inh	RecA intein inh	others
CCc1cccc(CC)c1NC(=O)C(CC)Sc1nc2ccncc2[nH]1 (configuration not stated)	x	-4.8	x	x	3.5
Cc1sc2nc(CSCC(=O)Nc3c(F)cccc3F)[nH]c(=O)c2c1C	x	-3.6	x	x	-1.0

More results follow.
SMILES	YopH inh	Mtb betalactam	Mtb growth	Arbovirus inh	RecA intein inh	others
COC(=O)COc1coc(CN2CCN(c3cccc(Cl)c3)CC2)cc1=O	x	28.3	x	x	1.4
O=C(CSc1nnc2scc(-c3ccccc3)n12)N1CCCc2ccccc21	-7.4	-7.7	-11.4%	1.7	0.8
COc1ccccc1N1C(=O)C2C3C=CC(CC3)C2C1=O (configuration not stated)	x	-6.5	x	x	-3.9
CCOc1ccccc1C1CC(c2ccccc2)Nc2nc(N)nn21 (configuration not stated)	x	-0.7	4.7%	7.6	2.4	Arbovirus inh repeat=-5.0
CCOC(=O)C1CCN(Cc2cc(=O)oc3c(C)c(C)ccc23)CC1	x	4.7	x	x	0.5
COc1ccccc1NC(=O)c1ccc([N+](=O)[O-])cc1[N+](=O)[O-]	x	59.5	3.1%	-4.2	5.3
CCCCNC(=S)NNC(=O)c1csc2c1CCC(C)C2 (configuration not stated)	-33.0	18.5	8.2%	-15.8	3.1
O=c1[nH]cnc2sc3c(c12)CN(Cc1ccccc1)CC3	x	7.1	x	x	-9.9
S=C(NCc1ccccc1)Nc1ccc2ccccc2c1	x	5.5	x	x	6.6
CCCCCCn1c(CN2CCN(C(=O)OCC)CC2)nc2c1c(=O)n(C)c(=O)n2C	-13.2	0.7	6.2%	x	-0.3
COCCCNC(=O)CN(CCc1ccccc1)S(=O)(=O)c1ccc(OC)cc1	x	-0.8	0.5%	-9.1	1.0
O=C(N/C=C/n1cnc2cc(C(F)(F)F)ccc21)c1ccccc1	x	-5.0	0.2%	-3.1	-0.4

The closing 4 entries of the section above are carried over, then new ones follow.
SMILES	YopH inh	Mtb betalactam	Mtb growth	Arbovirus inh	RecA intein inh	others
S=C(NCc1ccccc1)Nc1ccc2ccccc2c1	x	5.5	x	x	6.6
CCCCCCn1c(CN2CCN(C(=O)OCC)CC2)nc2c1c(=O)n(C)c(=O)n2C	-13.2	0.7	6.2%	x	-0.3
COCCCNC(=O)CN(CCc1ccccc1)S(=O)(=O)c1ccc(OC)cc1	x	-0.8	0.5%	-9.1	1.0
O=C(N/C=C/n1cnc2cc(C(F)(F)F)ccc21)c1ccccc1	x	-5.0	0.2%	-3.1	-0.4
N#Cc1cc2c(nc1SCC(=O)Nc1ccc(Cl)cc1)C1CCN2CC1	-42.5	-0.6	1.8%	-18.2	-1.9
COCc1nnc(SCC(=O)NCc2ccccc2)n1-c1ccccc1	4.5	13.3	-6.7%	-0.8	3.1
NS(=O)(=O)c1ccc(CCNC(=O)CN2CCCCCC2)cc1	x	-3.8	-7.6%	2.7	-2.6
N=C(N)SCc1ccc(Cl)cc1Cl	-31.3	3.7	-5.0%	-1.6	0.0
Cc1ccc(-c2nc(CSCC(=O)NCc3cccnc3)c(C)o2)cc1	-12.6	-2.0	7.6%	7.8	0.4
O=C(C1=C[C@H](c2ccc3c(c2)OCO3)C[C@H](OCc2ccc(CO)cc2)O1)N1CCCCCCC1	x	2.4	x	-6.1	4.9
Cc1c(C(=O)O)oc2ccc(S(=O)(=O)NCCC3=CCCCC3)cc12	-21.3	-0.6	-4.3%	-0.8	0.7
C/C(=N\Nc1ncc(Br)cn1)c1cccc([N+](=O)[O-])c1	x	3.9	x	x	-6.1
CCN(CCCNC(=O)C1c2ccccc2C(=O)N(CCOC)C1c1ccc(F)cc1)Cc1ccccc1 (configuration not stated)	x	3.2	-7.3%	-16.0	2.0
CCOc1ccc(-c2ccc(SCC(=O)Nc3nnc(C)s3)nn2)cc1	x	14.0	3.1%	-2.7	-5.3
COc1ccc(C[C@H]2CN3C(=NC[C@H]3C)N2CCNC(=O)c2ccc(C)c(Br)c2)cc1	x	-1.4	5.6%	10.7	-3.2
COc1c(F)c(F)cc2c(=O)c(C(=O)O)cn(C3CC3)c12	x	2.6	x	x	-1.5
COc1ccc(CC(=O)NCc2cccs2)cc1	20.2	0.6	1.6%	-20.1	2.7
CCOC(=O)c1c(C)c(C(=O)Nc2ccc3c(c2)OCO3)c(C)n1C	-46.4	9.0	-4.3%	-1.3	-1.3
Clc1ccc(Nc2ncn[nH]2)c(Cl)c1	x	33.1	6.68µM*	2.1	-6.1
Cc1noc(C)c1COc1ccc(C(=O)NCC2CCCO2)cc1 (configuration not stated)	13.2	-5.7	-0.4%	-3.4	1.2
CSc1ccc(CCNC(=O)C2CCCN(c3nn4c(=O)cc(C)nc4s3)C2)cc1 (configuration not stated)	x	-1.6	x	x	6.2
C[C@H](O)[C@@H](C(=O)N1CCN(C(=O)OC(C)(C)C)CC1)n1cc(CCCCNC(=O)OC(C)(C)C)nn1	x	-10.0	-13.6%	2.7	-1.0
Oc1ccc2ccccc2c1-c1sc(Nc2ccccc2)n[n+]1-c1ccc(F)cc1	x	-1.6	x	x	1.4
O=C(CNC(=O)C12CC3CC(CC(C3)C1)C2)N/N=C\c1ccco1	x	-12.9	x	x	-1.2
O=C(C1CC(=O)N(c2ccc(F)cc2)C1)N1CCN(c2ccccc2)CC1 (configuration not stated)	x	-11.5	x	x	-1.2
CN(C)S(=O)(=O)c1ccc(C(=O)Nc2nnc(Cc3ccccc3)s2)cc1	-0.3	1.0	6.2%	-7.3	1.3
CC(C)n1nc(C(=O)Nc2cccc(S(=O)(=O)NCc3ccco3)c2)c2ccccc2c1=O	x	-3.8	3.4%	x	8.5
Cc1ccc(-n2c(SCc3ccc([N+](=O)[O-])cc3)nc3ccccc3c2=O)cc1	2.3	-1.1	10.2%	-6.5	0.7
C/C(=N\NC(=O)c1cc(Br)ccc1O)c1cccs1	x	11.5	7.6%	16.6	-1.4
O=C(c1ccc(NS(=O)(=O)c2cccs2)cc1)N1CCCCC1	-30.5	-2.6	-1.9%	3.4	-0.4	Arbovirus inh repeat=5.7
O=C(COC(=O)c1nsc(Cl)c1Cl)NC1CCCCC1	x	-5.1	x	x	-3.9
CCOC(=O)c1c(-c2ccccc2)c2cc(OC)ccc2n1CCCN(C)C	x	82.0	x	x	0.5
Nc1ccc(-c2nc3cc(N)ccc3o2)cc1	x	4.2	x	x	-4.2
CC(=O)Nc1ccc(S(=O)(=O)NCC2CCCO2)cc1 (configuration not stated)	x	-14.5	x	x	2.4
CCOc1ccc(C(=O)N2CCC3(CC2)NCCc2[nH]cnc23)cc1	x	-5.7	x	x	-4.0
CC(C)c1nnc(NC(=O)C2CCN(c3cnccn3)CC2)s1	10.0	-2.7	-1.7%	-1.2	0.6
CCN1CCCC1CNC(=O)Cn1cccc1C(=O)c1ccccc1C (configuration not stated)	-44.8	-10.8	1.3%	-16.5	-5.6
COc1ccccc1NC(=O)COC(=O)CNC(=O)c1ccc(OC)c(OC)c1	-56.0	-1.7	-9.9%	-2.4	0.2
O=C(Nc1ccccc1N1CCCC1)c1cc(S(=O)(=O)N2CCOCC2)ccc1Cl	x	-5.4	x	x	3.4
CSc1ccccc1C(=O)Nc1nccs1	-16.5	0.2	-8.9%	-4.5	2.5
Cc1cccc(C)c1OCC(=O)Nc1ccc(S(=O)(=O)Nc2ccccn2)cc1	-18.7	1.9	3.2%	-1.3	6.4
COc1cc(C2Nn3c(nnc3-c3ccccc3OC)S2)ccc1O (configuration not stated)	-24.9	-12.2	-11.8%	4.8	-3.3
COc1cc2c(CCNC(C)=O)c[nH]c2cc1O	x	7.1	-0.1%	x	-9.7
CCCCN(C)CCNC(=O)c1cc2cc3ccc(OC)cc3nc2o1	x	5.7	x	x	-3.9
O=C(O)C[C@H]1c2cc(C(F)(F)F)ccc2S(=O)(=O)N1C1CCN(Cc2ccccc2)CC1	x	1.1	-4.9%	x	-2.4
Cc1ccn2c(/C=N/OCc3cccc(F)c3)c(-c3ccc(Cl)cc3)nc2c1	-20.8	4.3	-0.2%	5.6	0.8
Oc1c(Br)cc(C2N=C(c3ccccc3Cl)NO2)cc1Br (configuration not stated)	-17.2	4.6	0.3%	12.4	-6.6
CN(C)CCNC(=O)c1cc2sc3ccccc3c2s1	x	-2.4	3.6%	-26.5	1.7
Cc1cccc(NC(=O)CN2C(=O)NC3(CCCC3)C2=O)n1	x	-12.5	x	x	-0.9
NCC(c1ccco1)c1c[nH]c2ccccc12 (configuration not stated)	x	4.3	x	x	-5.7
O=C(Oc1ccccc1N1C(=O)C2CCCCC2C1=O)c1ccc(Cl)cc1 (configuration not stated)	-27.7	16.6	-3.3%	4.2	4.3
CC(C)(C)c1cc(CCC(=O)NCc2cccnc2)cc(C(C)(C)C)c1O	x	2.7	x	x	-3.0
Cc1oc(-c2ccccc2Cl)nc1CN(Cc1ccccn1)C[C@@H]1CCC(=O)N1	x	1.1	4.3%	-6.8	1.0
Nc1nonc1-n1nnc(C(=O)N/N=C/c2cccnc2)c1CSc1ccccc1	x	1.8	x	x	0.9
CS(=O)(=O)c1ccc2nc(NC(=O)c3ccc(NS(=O)(=O)c4ccc(F)c(F)c4)cc3)sc2c1	x	-0.3	x	x	-2.6
Cc1cc(C)c(-c2csc(NC(=O)C3=COCCO3)n2)c(C)c1	x	-1.1	x	x	3.4
COc1ccc(NS(=O)(=O)c2ccc(NC(=S)NC(=O)c3cccnc3)cc2)nn1	x	-0.5	-5.0%	-1.1	6.8
Cc1ccc(OCCCC(=O)Nc2nc3ccccc3[nH]2)cc1	x	32.5	10.7%	9.4	-2.3
O=C(CN(C(=O)CCC(=O)Nc1ccccn1)c1ccc2c(c1)OCCO2)NCCc1ccccc1	x	4.3	8.8%	6.8	12.0
CC1CCCN(C(=O)c2sc3cc([N+](=O)[O-])ccc3c2Cl)C1 (configuration not stated)	0.1	-9.0	1.4%	-6.0	5.7
COc1ccc(CCNC(=S)NC(=O)c2cccc([N+](=O)[O-])c2)cc1OC	x	-4.6	x	x	2.0
CC(=O)N1CCN(CC(=O)Nc2ccc(Cl)c(S(=O)(=O)N(C)C)c2)CC1	-12.5	-3.6	-7.3%	0.0	-3.4
COc1ccccc1N1CCN(C(=O)c2ccc([N+](=O)[O-])s2)CC1	-16.2	-9.3	4.1%	-8.9	-0.5
Cc1ccc(NC(=O)Nc2cc(S(=O)(=O)N(C)C)ccc2C)cc1	x	8.7	8.8%	-8.2	0.4
(further entries)
SMILES	YopH inh	Mtb betalactam	Mtb growth	Arbovirus inh	RecA intein inh	others
Cc1cnc(C(=O)OCc2csc(CC(=O)Nc3ccccc3C)n2)cn1	x	-5.5	x	x	-2.4
OCCCNc1ncnc2c1cnn2-c1ccc(Cl)cc1	x	4.8	x	x	-0.9
Cc1cccc(Cn2c(N3CCCCC3C)nc3c2c(=O)[nH]c(=O)n3C)c1 (configuration not stated)	x	3.2	8.5%	3.1	0.1	Arbovirus inh repeat=3.1
O=C(Cc1c[nH]c2ccccc12)NC1(C(=O)NC2CCCCC2)CCCCC1	-21.0	-2.4	-5.9%	-9.8	5.8
COCCNC(=O)c1cc2c(-c3ccc(Cl)cc3)nn(C)c2s1	-47.9	28.2	15.1%	-12.6	x	Arbovirus inh repeat=-7.3
COc1cccc(N=Cc2c(O)c3ccccc3oc2=O)c1	x	5.5	x	x	-0.5
Nc1ccc(-c2nc3ncccc3o2)c(Cl)c1	x	-7.9	-4.5%	-4.5	-1.3
